UUG fidelity: modulators of start codon recognition fidelity in yeast; AID 602363; activity score, % at 18.7 µM; 350,000 tested, 0.13% active; S. cerevisiae UUG-firefly luciferase reporter, luminescence/redox ratio;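 active = replicate mean at a twofold rise or more, about +100% in these data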;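 note: firefly luciferase made from a UUG start codon reports start codon fidelity; reporter light over untreated wells divided by growth signal over untreated wells; some hits fall short of that in this replicate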
Env fusion inh: blocks HIV Env-driven cell-cell fusion; HeLa-JRFL Env/CEM21 cell fusion, luciferase; inhibition, % at 12.3 µM; 360,000 tested, 1.1% active; AID 651610;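 active = mean replicate inhibition score of at least 50 and every replicate individually at or above 50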;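 note: 0% = plate neutral controls and 100% = maraviroc near 300 nM; one replicate is shown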
Active calls of the source: *; [ ] = dose if it differs, or a comment.

CO[C@@H]1CN(C)C(=O)c2cc(NS(=O)(=O)c3ccc(Oc4ccccc4)cc3)ccc2OC[C@H](C)NC[C@H]1C was read as UUG fidelity 5 and Env fusion inh -32[16.7 µM].
For CNC[C@H]1Oc2c(NC(=O)C3CCCCC3)cccc2C(=O)N([C@@H](C)CO)C[C@@H]1C the results were UUG fidelity -11 and Env fusion inh -3[16.7 µM].
O=C(C[C@H]1CC[C@H](NC(=O)CCN2CCCCC2)[C@@H](CO)O1)NCc1ccc(Cl)c(Cl)c1 was read as UUG fidelity -4 and Env fusion inh -2[16.7 µM].
For C[C@H](CO)N1C[C@H](C)[C@@H](CN(C)C(=O)Nc2ccc3c(c2)OCO3)Oc2ccc(NC(=O)C3CC3)cc2CC1=O the results were UUG fidelity -4 and Env fusion inh -16[16.7 µM].
For Cc1noc(C)c1NC(=O)N(C)C[C@H]1Oc2ccc(NC(=O)NC3CCCCC3)cc2CC(=O)N([C@H](C)CO)C[C@@H]1C the results were UUG fidelity -11 and Env fusion inh -6[16.7 µM].
C[C@H](CO)N1C[C@H](C)[C@H](CN(C)C(=O)Nc2cccc3ccccc23)OCCCC[C@H](C)Oc2ccc(NC(=O)Nc3ccc(C(F)(F)F)cc3)cc2C1=O was read as UUG fidelity 11 and Env fusion inh 35[16.7 µM].
COc1ccc(S(=O)(=O)N(C)C[C@@H]2Oc3ccc(NC(=O)Nc4c(C)noc4C)cc3CC(=O)N([C@H](C)CO)C[C@@H]2C)cc1 was read as UUG fidelity -4 and Env fusion inh 12[16.7 µM].
`CCNC(=O)C[C@@H]1CC[C@@H]2[C@H](COc3ccc(NS(=O)(=O)c4ccccc4C)cc3C(=O)N2C)O1` gave UUG fidelity -9 and Env fusion inh -13[16.7 µM].
For Cc1noc(C)c1NC(=O)Nc1ccc2c(c1)CC(=O)N([C@H](C)CO)C[C@H](C)[C@H](CN(C)C(=O)Nc1ccc(C(F)(F)F)cc1)O2 the results were UUG fidelity 0 and Env fusion inh -18[16.7 µM].
Screening O=C(Cc1ccncc1)Nc1ccc2c(c1)[C@H]1C[C@@H](CC(=O)N3CCOCC3)O[C@@H](CO)[C@H]1O2 returned UUG fidelity -1 and Env fusion inh 3[16.7 µM].

Compounds above that have a halogen, in the order listed:
O=C(C[C@H]1CC[C@H](NC(=O)CCN2CCCCC2)[C@@H](CO)O1)NCc1ccc(Cl)c(Cl)c1 was read as UUG fidelity -4 and Env fusion inh -2[16.7 µM].
C[C@H](CO)N1C[C@H](C)[C@H](CN(C)C(=O)Nc2cccc3ccccc23)OCCCC[C@H](C)Oc2ccc(NC(=O)Nc3ccc(C(F)(F)F)cc3)cc2C1=O was read as UUG fidelity 11 and Env fusion inh 35[16.7 µM].
For Cc1noc(C)c1NC(=O)Nc1ccc2c(c1)CC(=O)N([C@H](C)CO)C[C@H](C)[C@H](CN(C)C(=O)Nc1ccc(C(F)(F)F)cc1)O2 the results were UUG fidelity 0 and Env fusion inh -18[16.7 µM].

Retrieved by structure from the list above, 2 records:
For C[C@H](CO)N1C[C@H](C)[C@@H](CN(C)C(=O)Nc2ccc3c(c2)OCO3)Oc2ccc(NC(=O)C3CC3)cc2CC1=O the results were UUG fidelity -4 and Env fusion inh -16[16.7 µM].
O=C(C[C@H]1CC[C@H](NC(=O)CCN2CCCCC2)[C@@H](CO)O1)NCc1ccc(Cl)c(Cl)c1 was read as UUG fidelity -4 and Env fusion inh -2[16.7 µM].

(further entries)
Cc1noc(C)c1S(=O)(=O)Nc1ccc2c(c1)C(=O)N([C@H](C)CO)C[C@H](C)[C@@H](CN(C)Cc1ccccc1)OCCCC[C@@H](C)O2 was read as UUG fidelity -2 and Env fusion inh -51[16.7 µM].
Screening COc1cccc(NC(=O)Nc2ccc3c(c2)C(=O)N(C)[C@H]2CC[C@@H](CC(=O)O)O[C@@H]2CO3)c1 returned UUG fidelity 5 and Env fusion inh 4[16.7 µM].
`C[C@H]1CN([C@@H](C)CO)C(=O)c2cccc(NC(=O)c3ccc(-c4nccs4)cc3)c2O[C@@H]1CN(C)S(=O)(=O)c1cccs1` gave UUG fidelity 6 and Env fusion inh -8[16.7 µM].
Screening C[C@@H]1CN([C@H](C)CO)C(=O)c2cc(NC(=O)Cc3cn(C)c4ccccc34)ccc2O[C@@H]1CN(C)C(=O)Nc1ccccc1 returned UUG fidelity -8 and Env fusion inh -4[16.7 µM].
COc1ccc(S(=O)(=O)N(C)C[C@H]2OCCCC[C@H](C)Oc3ccc(NC(=O)NC(C)C)cc3C(=O)N([C@@H](C)CO)C[C@H]2C)cc1 was read as UUG fidelity -10 and Env fusion inh 7[16.7 µM].
Screening NC(=O)[C@H]1[C@@H]2C(=O)O[C@@H](c3ccccc3)[C@@H](c3ccccc3)N2[C@@H](c2ccc(OCCO)cc2)[C@]12C(=O)Nc1ccc(C#CC3(O)CCCCCC3)cc12 returned UUG fidelity -8 and Env fusion inh -16[16.7 µM].
For COc1ccc(NC(=O)N(C)C[C@H]2Oc3ccc(NS(=O)(=O)c4ccc(OC)cc4)cc3C(=O)N([C@@H](C)CO)C[C@H]2C)cc1 the results were UUG fidelity -7 and Env fusion inh -20[16.7 µM].
`C[C@@H]1CCCCO[C@@H](CN(C)S(=O)(=O)c2cn(C)cn2)[C@H](C)CN([C@@H](C)CO)C(=O)c2cc(NS(C)(=O)=O)ccc2O1` gave UUG fidelity 3 and Env fusion inh 3[16.7 µM].
Screening COCC#Cc1ccc2c(c1)O[C@@H](CN(C)C(=O)COC)[C@@H](C)CN([C@H](C)CO)S2(=O)=O returned UUG fidelity -13 and Env fusion inh -9[16.7 µM].
Screening COCC#Cc1cnc2c(c1)C(=O)N([C@H](C)CO)C[C@H](C)[C@H](CN(C)C(=O)Nc1c(C)noc1C)O2 returned UUG fidelity 29 and Env fusion inh 8[16.7 µM].
`Cc1noc(C)c1S(=O)(=O)Nc1ccc2c(c1)C(=O)N([C@H](C)CO)C[C@@H](C)[C@@H](CN(C)C(=O)c1ccccc1)OCCCC[C@H](C)O2` gave UUG fidelity 2 and Env fusion inh -14[16.7 µM].
`C[C@@H]1CN([C@H](C)CO)C(=O)c2cc(NC(=O)C3CCCCC3)ccc2O[C@H]1CN(C)Cc1ccc(C(F)(F)F)cc1` gave UUG fidelity 15 and Env fusion inh 17[16.7 µM].
`COc1ccc(S(=O)(=O)N(C)C[C@H]2OCCCC[C@H](C)Oc3ccc(NS(=O)(=O)c4c(C)noc4C)cc3C(=O)N([C@@H](C)CO)C[C@H]2C)cc1` gave UUG fidelity -1 and Env fusion inh -34[16.7 µM].
For CNC[C@@H]1Oc2ccc(NC(=O)C3CC3)cc2CC(=O)N([C@@H](C)CO)C[C@H]1C the results were UUG fidelity -3 and Env fusion inh -5[16.7 µM].
`C[C@@H]1CN([C@@H](C)CO)C(=O)c2cc(NC(=O)NC3CCCCC3)ccc2O[C@H]1CN(C)Cc1ccc(Cl)c(Cl)c1` gave UUG fidelity -1 and Env fusion inh 17[16.7 µM].
`O=C(C[C@@H]1C[C@@H]2c3cc(NC(=O)c4cccnc4)ccc3O[C@@H]2[C@@H](CO)O1)NCc1ccccn1` gave UUG fidelity -16 and Env fusion inh -11[16.7 µM].
Screening O=C(C[C@H]1CC[C@H](NC(=O)C2CCOCC2)[C@@H](CO)O1)Nc1ccc(-c2ccccc2)cc1 returned UUG fidelity 6 and Env fusion inh 10[16.7 µM].
For C[C@@H]1CN([C@H](C)CO)C(=O)CCCn2cc(nn2)CO[C@@H]1CN(C)S(=O)(=O)c1ccccc1F the results were UUG fidelity 8 and Env fusion inh 13[16.7 µM].
Screening CC(C)CC#Cc1ccc2c(c1)O[C@@H](CN(C)C(=O)c1cccc(F)c1)[C@H](C)CN([C@H](C)CO)S2(=O)=O returned UUG fidelity -7 and Env fusion inh 15[16.7 µM].
C/C=C/c1ccc2c(c1)O[C@H](CN(C)C(=O)CN1CCOCC1)[C@H](C)CN([C@@H](C)CO)S2(=O)=O was read as UUG fidelity 10 and Env fusion inh -9[16.7 µM].
Screening CO[C@@H]1CN(C)C(=O)c2cc(NS(=O)(=O)c3ccccc3F)ccc2OC[C@@H](C)NC[C@H]1C returned UUG fidelity -12 and Env fusion inh 7[16.7 µM].
Screening CC(C)NC(=O)N(C)C[C@H]1Oc2ncc(-c3cccc(C#N)c3)cc2C(=O)N([C@@H](C)CO)C[C@H]1C returned UUG fidelity 2 and Env fusion inh 9[16.7 µM].
Cc1ccccc1-c1cnc2c(c1)C(=O)N([C@@H](C)CO)C[C@@H](C)[C@H](CN(C)C(=O)c1ccc(F)cc1)O2 was read as UUG fidelity -4 and Env fusion inh -11[16.7 µM].
`N#C[C@@H]1[C@H](c2ccc(-c3ccccc3F)cc2)[C@H](CO)N1C(=O)C1CC1` gave UUG fidelity -2 and Env fusion inh 5[16.7 µM].
For Cc1ccc(S(=O)(=O)Nc2ccc3c(c2)C(=O)N([C@H](C)CO)C[C@H](C)[C@H](CN(C)C(=O)Nc2ccc(F)cc2)OCCCC[C@@H](C)O3)cc1 the results were UUG fidelity -12 and Env fusion inh -13[16.7 µM].
C[C@H](CO)N1C[C@H](C)[C@H](CN(C)C(=O)C2CCC2)Oc2ncc(C#Cc3ccccc3F)cc2C1=O was read as UUG fidelity 1 and Env fusion inh -15[16.7 µM].
Screening C[C@H](CO)N1C[C@H](C)[C@H](CN(C)C(=O)c2ccccn2)Oc2cc(C3=CCCC3)ccc2S1(=O)=O returned UUG fidelity -5 and Env fusion inh 9[16.7 µM].
Screening O=C(C[C@@H]1C[C@@H]2c3cc(NC(=O)Nc4ccc(F)cc4)ccc3O[C@@H]2[C@@H](CO)O1)NC1CCCC1 returned UUG fidelity -8 and Env fusion inh 16[16.7 µM].
`Cc1ccccc1-c1ccc2c(c1)O[C@H](CN(C)C(=O)c1ccccn1)[C@H](C)CN([C@@H](C)CO)S2(=O)=O` gave UUG fidelity 9 and Env fusion inh 27[16.7 µM].
`C[C@H]1CN([C@@H](C)CO)C(=O)c2cc(-c3cccc(F)c3)cnc2O[C@@H]1CN(C)S(=O)(=O)c1cccc(F)c1` gave UUG fidelity -7 and Env fusion inh 31[16.7 µM].
Screening COc1ccc(S(=O)(=O)Nc2ccc3c(c2)CC(=O)N([C@@H](C)CO)C[C@H](C)[C@H](CN(C)S(=O)(=O)c2ccc(C)cc2)O3)cc1 returned UUG fidelity -5 and Env fusion inh 96*[16.7 µM].
Screening C[C@H](CO)N1C[C@H](C)[C@@H](CN(C)C(=O)Nc2ccc(F)cc2)Oc2c(NC(=O)Nc3cccc4ccccc34)cccc2C1=O returned UUG fidelity -14 and Env fusion inh 29[16.7 µM].
For C[C@@H]1CN([C@H](C)CO)C(=O)c2cc(NC(=O)Cc3cn(C)c4ccccc34)ccc2O[C@@H]1CN(C)Cc1ccc(C(F)(F)F)cc1 the results were UUG fidelity -10 and Env fusion inh -11[16.7 µM].
Screening CCc1csc(N2[C@H](CO)[C@@H](c3ccc(C4=CCCC4)cc3)[C@@H]2C#N)n1 returned UUG fidelity -7 and Env fusion inh 9[16.7 µM].
For CCCN(C)C[C@H]1Oc2ncc(-c3cccnc3)cc2C(=O)N([C@@H](C)CO)C[C@H]1C the results were UUG fidelity -9 and Env fusion inh -6[16.7 µM].
Screening COc1ccc(CN(C)C[C@@H]2Oc3ccc(NC(=O)Nc4ccccc4)cc3CC(=O)N([C@@H](C)CO)C[C@@H]2C)cc1 returned UUG fidelity 0 and Env fusion inh 1[16.7 µM].
For CNC(=O)C[C@@H]1CC[C@@H]2[C@H](COc3ccc(NC(=O)Nc4ccccc4OC)cc3C(=O)N2C)O1 the results were UUG fidelity 6 and Env fusion inh 18[16.7 µM].
C[C@@H]1CN([C@H](C)CO)C(=O)c2cc(NC(=O)c3ccccc3)ccc2O[C@@H](C)CCCCO[C@H]1CN(C)Cc1ccncc1 was read as UUG fidelity 9 and Env fusion inh 26[16.7 µM].
C[C@@H]1CN([C@@H](C)CO)C(=O)c2cc(C3=CCCC3)cnc2O[C@@H]1CN(C)C(=O)c1cccnc1 was read as UUG fidelity -14 and Env fusion inh -20[16.7 µM].
For CCc1cnc(N2[C@H](CO)[C@H](c3ccc(C#CCC4CCCC4)cc3)[C@@H]2C#N)s1 the results were UUG fidelity -11 and Env fusion inh -34[16.7 µM].
Screening C[C@H](CO)N1C[C@H](C)[C@@H](CN(C)C(=O)NC2CCCC2)Oc2ncc(C#CCN(C)C)cc2C1=O returned UUG fidelity -12 and Env fusion inh -8[16.7 µM].
For CCC(=O)Nc1ccc2c(c1)C(=O)N(C)[C@@H]1CC[C@H](CC(=O)NCc3ccccc3)O[C@H]1CO2 the results were UUG fidelity -11 and Env fusion inh -3[16.7 µM].
For COc1ccc(S(=O)(=O)N(C)C[C@H]2Oc3cc(-c4cccc(F)c4)ccc3S(=O)(=O)N([C@H](C)CO)C[C@H]2C)cc1 the results were UUG fidelity -3 and Env fusion inh 48[16.7 µM].
C[C@H](CO)N1C[C@H](C)[C@@H](CN(C)C(=O)C2CCCCC2)OCCCC[C@H](C)Oc2ccc(NC(=O)CCCN(C)C)cc2C1=O was read as UUG fidelity 18 and Env fusion inh -12[16.7 µM].

Compound activity: PubChem, Broad Institute

Some of the compounds tested; rates above refer to the full screens.
